Compound activity (PubChem BioAssay)
Calb biofilm kill – mixtures killing C. albicans biofilm; C. albicans biofilm persisters + clotrimazole, fluorescence viability; primary screen in compound mixtures of four per well; inhibition, % at 7.6 µM; actives 0.02% (n = 120,000);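 active = inhibition above 30.3% in the primary screen of four-compound pools, then above 30% when the compound was retested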;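 also: compounds exposed to preformed 24 h biofilms for 48 h; the number belongs to the whole pool; some results filed as inactive read as strong as hits; inactives centre near 12; 0% = biofilm with clotrimazole alone and 100% = kill control; retested singly at about 60 µM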
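Assay system: C. albicans biofilms / Medium: RPMI/MOPS medium, pH 7.0 / Schedule: biofilm formation 24 h, compound exposure 48 h, 37 °C / Measured by: Alamar Blue fluorescence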
The depositor's hits bear a star. A portion of the library; count on the stated rates, not on these rows.

entry	smiles	Calb biofilm kill
1	O=C(NCc1ccc(Cl)cc1)c1cc([N+](=O)[O-])ccc1Cl	11.1
2	Cn1nccc1NC(=O)COCC(=O)O	5.7
3	Nc1ccn(-c2ncc(C(F)(F)F)cc2Cl)c(=O)n1	-9.3
4	Cc1cccc(C)c1OCc1n[nH]c(=S)o1	8.1
5	CN(C(=O)c1ccncc1)c1ccccc1	19.1
6	COc1cc(C(=O)Nc2nnc(C(F)(F)F)s2)c([N+](=O)[O-])cc1OC	5.5
7	O=C(/C=C/c1ccccc1Cl)N(Cc1ccccc1)C1CCS(=O)(=O)C1 (centres undefined)	0.2
8	CC(C)[C@H](NC(=O)c1cccc(S(=O)(=O)N2CCOCC2)c1)C(=O)Nc1nccs1	8.4
9	COc1ccc(O)c(C(=O)c2cc(SCC(=O)O)c3nc4sc5c(c4c(=O)n3c2)CCCC5)c1	19.1
10	Nc1[nH]ncc1-c1ccc(Cl)cc1	17.1
11	O=C(O)c1nn2c(C(F)(F)F)cc(-c3cccs3)nc2c1Cl	7.1
12	Cc1nc(S(=O)(=O)Cc2ccccc2)nc2c1CCC2	10.2
13	Cc1nnc(SCC2=C(C(=O)O)N3C(=O)C(NC(=O)Cn4ncc(Cl)c4C)C3SC2)s1 (centres undefined)	15.9
14	Cc1ccc(NC(=S)N2CCCC(O)C2)cc1 (centres undefined)	13.1
15	Cn1c(SCC(=O)N=Nc2c(O)[nH]c3ccccc23)nc2ccccc21	8.7
16	CCOc1ccc(OCc2ccc(C(=O)N(CC)CC)cc2)cc1	9.3
17	Cc1cc(C)n2nc(C(=O)N/N=C/c3ccccc3C)nc2n1	0.1
18	CC1(C)Cc2c(sc(NC(=O)C3CC(Cl)=CCC3C(=O)O)c2C#N)CO1 (centres undefined)	20.6
19	CNc1cccc2c1C(=O)c1ccccc1C2=O	16.6
20	CC(C)C(=O)c1ccc(O)c(O)c1	13.7
21	C[C@@]12CCC=C[C@H]1[C@H](c1ccc3ccccc3c1)N(Cc1ccccc1)C2=O	12.6
22	O=C(/C=C/c1cccc(Cl)c1)NCCN1CCOCC1	14.0
23	O=C(OCc1nc2ccccc2[nH]1)C1CCCCC1	12.1
24	Fc1ccc(-c2nc3cnccn3c2NC2CCCC2)cc1	5.1
25	CCN(CC)S(=O)(=O)c1cccc(NC(=O)CNC2CCCCCC2)c1	20.8
26	CN1CCN(c2ccc(C(=O)c3ccccc3)cc2[N+](=O)[O-])CC1	13.7
27	CNC(=O)CCC(=O)Nc1ccc(C)cc1	10.4
28	CC(C)OCCCNC(=O)c1ccc2c(=O)n(Cc3ccc4c(c3)OCO4)c(=S)[nH]c2c1	8.2
29	O=C(CSc1c(F)c(F)cc(F)c1F)Nc1ccc(C2SCCS2)cc1	18.8
30	COc1cc(C=Nc2cccc(C)c2)c(O)c([N+](=O)[O-])c1	15.5
31	CC[C@H](C)/C=C(C)/C=C/C1=CC2=CC(=O)[C@]3(C)OC(=O)[C@@H](C(C)=O)[C@@H]3C2=CO1	20.6
32	Cc1ccc(O)c(NC(=O)c2noc3c2CCc2ccccc2-3)c1	19.2
33	O=C1CCCC(O)=C1N=Nc1c(Cl)cc(C(F)(F)F)cc1Cl	1.0
34	Cc1ccc(NC(=O)c2cc(N3C(=O)C=CC3=O)ccc2N2CCOCC2)cc1	17.6
35	Cc1ccc(O)c(C(=O)c2cc(C#N)c(=O)n(Cc3ccccc3)c2)c1	16.5
36	COc1ccc(C2CC(=O)N(CC(=O)NCC3CCCO3)c3ccccc3S2)cc1OC (centres undefined)	13.3
37	Cc1csc(NC(=O)CSc2ccc(-c3ccc(F)cc3)nn2)n1	18.1
38	COc1ccccc1Oc1ccc2c(c1)C(=O)N(CC1CCCO1)C2=O (centres undefined)	14.9
39	O=C(Nc1ccc(Cl)cc1C(F)(F)F)c1ccccc1Cl	19.6
40	Cc1ccc(CSCCNC(=O)CN2C(=O)c3ccccc3S2(=O)=O)cc1	13.6
41	O=C(NNS(=O)(=O)c1ccccc1F)c1cc(-c2ccccc2)n[nH]1	9.6
42	Cc1ncsc1CCOC(=O)c1cccc([N+](=O)[O-])c1	8.8
43	Cc1cc(C(=O)N/N=C/c2ccc3c(c2)OCO3)c2ccccc2n1	26.5
44	COc1cc2c(cc1OC)C(CCc1ccccc1)=NCC2	23.0
45	Cc1cc(CNC(=O)COc2ccc(C)c(C)c2)c2ccccc2n1	4.8
46	O=C1c2ccccc2NC(c2ccccn2)N1c1ccccc1F (centres undefined)	8.6
47	Nc1cc(S(=O)(=O)Nc2ccccc2Cl)ccc1N1CCCC1	-0.3
48	Cc1cc(=O)[nH]c(-c2ccccc2OC(F)(F)F)n1	22.4
49	O=C(NCc1ccncc1)C(=O)N/N=C/c1cccnc1	25.1
50	CC(C)Cn1c(N)c(C(=O)COC(=O)C2CC(=O)N(Cc3ccccc3Cl)C2)c(=O)n(C)c1=O (centres undefined)	15.2
51	O=C(c1ccccc1)c1cnc(-c2ccccc2)s1	7.8
52	COC(=O)c1ccccc1NC(=O)COC(=O)c1ccccc1N=Nc1ccc(N(C)C)cc1	8.9
53	COCCNC(=O)c1c(CSc2ccccc2)noc1C(=O)NCc1ccccc1	12.6
54	O=C(NC12CC3CC(CC(C3)C1)C2)c1ccc(-c2cccc(Cl)c2)o1	7.7
55	COC(=O)c1cccc(NC(=S)Nc2cccc(Cl)c2Cl)c1	20.2
56	CCCC12CN3CCN(CC(C3)/C1=N\NC(=O)c1ccc(F)cc1)C2	10.3
57	C/C(=N\n1c(C)nc2ccccc2c1=O)c1ccc(C)o1	13.8
58	S=C(NCCc1ccccc1)N/N=C/c1ccc(Cl)cc1	20.8
59	CCOC(=O)Cc1cnc(NC(=O)CSc2nc(N)cc(N)n2)s1	1.6
60	Cc1ccc(C)c(N(C(=O)c2nsc(Cl)c2Cl)C(C(=O)NC2CCCC2)c2ccc(O)cc2)c1 (centres undefined)	1.6

The list goes on.
entry	smiles	Calb biofilm kill
61	Cc1nn2c(COc3ccc(NC(=O)C(C)C)cc3)nnc2c2ccccc12	-7.0
62	CSc1ccccc1NC(=O)CN(C)CC(=O)Nc1ccc(Cl)cc1F	11.0
63	Cc1cccc(NC(=O)c2ccc(C(=O)Nc3cccc(C)c3)nc2)c1	11.1
64	NC(=O)CCn1cnc2ccccc21	16.0
65	COc1c(OC(C)=O)ccc(/C=N\NC(=O)c2ccc(Br)cc2)c1[N+](=O)[O-]	11.3
66	O=[N+]([O-])c1ccc2c(c1)CNc1ccccc1O2	15.1
67	CN1CCN(C(=O)c2cc(Cl)cc(Cl)c2NC(=O)c2ccco2)CC1	-7.7
68	CC(=O)Oc1c(Sc2ccccc2[N+](=O)[O-])c(C)nn1C(C)(C)C	14.1
69	CC(C)(C)N/N=C/c1c(O)n(-c2ccc(Cl)cn2)c(=O)c2ccccc12	13.1
70	CCOc1ccc(N(C(=O)c2ccccc2Cl)C2=NC(C)(C)CS2)cc1	2.3
71	COc1ccc(CNC(=O)C2CCCN2)cc1OC (centres undefined)	27.9
72	OC(c1ccccc1)(c1ccccc1)C1CCN(C(=S)NCCc2ccccc2)CC1	9.7
73	COc1ccc(N=C2NC(=O)/C(=C/c3ccc(O)c(OC)c3)S2)cc1	19.2
74	CCn1c(SCC(=O)N/N=C/c2c[nH]c3ccccc23)nnc1-c1ccc(C(C)(C)C)cc1	10.6
75	O=C(N/N=C/C=C/c1ccco1)c1ccccc1Cl	14.8
76	O=C(O)COc1ccc(C(=O)c2ccccc2)cc1	8.0
77	O=[N+]([O-])c1ccc(/C=N/n2cn[nH]c2=S)cc1	14.3
78	Fc1ccc(COc2ccccc2CNc2nn[nH]n2)cc1	17.5
79	COc1ccc(C(CNC(=O)COc2ccc(F)cc2Br)N2CCCC2)cc1 (centres undefined)	1.0
80	CCOc1ccc(NC(=O)c2ccccc2SC)cc1	-0.8
81	Nc1nc(NCc2ccco2)nc(NCCO)c1[N+](=O)[O-]	18.4
82	COc1cccc(/C=C/C(=O)OCC(=O)Nc2ccc(N3CCOCC3)cc2)c1OC	17.0
83	CCC(C)[C@@H](C(=O)N1CCNCC1)n1cc(CCCCN)nn1 (some centres undefined)	12.4
84	CS(=O)(=O)NNC(=O)Cn1nnc(-c2cc(C(F)(F)F)cc(C(F)(F)F)c2)n1	5.4
85	CCc1nc2ccccc2n1CCC(=O)O	14.7
86	Cc1ccccc1Oc1ccc(NC(=O)C2CC=CCC2C(=O)O)cc1 (centres undefined)	12.9
87	Cc1c(N2C(=O)CSC2c2ccccc2)c(=O)n(-c2ccccc2)n1C (centres undefined)	25.9
88	CCC1CCCCN1CCCNC(=O)c1cn(CC)c2ccc(S(=O)(=O)N3CCc4ccccc4C3)cc2c1=O (centres undefined)	-2.2
89	Cc1ccnc(NC(=O)Cc2ccc(F)cc2)n1	5.4
90	COC(=O)COc1cccc2c(=O)n(CC(=O)Nc3ccc4c(c3)OCCO4)ccc12	19.9

Rewritten with each value named: entries from further up.
73. COc1ccc(N=C2NC(=O)/C(=C/c3ccc(O)c(OC)c3)S2)cc1
  Calb biofilm kill: 19.2

46. O=C1c2ccccc2NC(c2ccccn2)N1c1ccccc1F (centres undefined)
  Calb biofilm kill: 8.6

29. O=C(CSc1c(F)c(F)cc(F)c1F)Nc1ccc(C2SCCS2)cc1
  Calb biofilm kill: 18.8

82. COc1cccc(/C=C/C(=O)OCC(=O)Nc2ccc(N3CCOCC3)cc2)c1OC
  Calb biofilm kill: 17.0

(more compounds)
entry	smiles	Calb biofilm kill
91	CCOc1ccc(-c2nnc3ccc(SCC(=O)Nc4nc5ccccc5s4)nn23)cc1	9.2
92	CCc1ccc(C2C(C#N)=C(N)OC3=C2C(=O)CCC3)s1 (centres undefined)	21.9
93	FC(F)(F)c1cnc(COc2ccc(Cl)cc2Cl)c(Cl)c1	9.7
94	O=C(c1ccc(Cl)c([N+](=O)[O-])c1)N1CCN(C(=O)c2ccco2)CC1	-1.5
95	COc1ccc(/C=C(\C#N)C(=O)OCC(=O)NC(=O)NCCC(C)C)cc1	4.7
96	O=C(OCc1nc2scc(-c3ccccc3)c2c(=O)[nH]1)c1cccc([N+](=O)[O-])c1	21.0
97	COc1ccc(C2/C=C\CN(S(=O)(=O)c3cccc4cccnc34)CC(=O)N2Cc2ccc(F)cc2)cc1 (centres undefined)	11.2
98	COc1cc([N+](=O)[O-])cc2sc(NC(=O)c3c(F)cccc3F)nc12	12.7
99	CC(=O)N1N=C(c2ccc3ccccc3c2)OC1(C)C	9.2
100	CN=c1sc2ccccc2n1CC(O)c1ccccc1 (centres undefined)	22.7
101	COc1cc(C(=O)O)cc(NC(=O)c2cccs2)c1OC	8.0
102	CC(C)OCC(O)CCc1n[nH]c(=S)n1-c1ccccc1 (centres undefined)	8.1
103	COc1ccc(S(=O)(=O)N2CCOCC2)c(C)c1C	11.7
104	CCc1cc2cc(C)cc(C)c2nc1SCC(=O)N1CCCC1	18.3
105	Fc1ccc(/C=N/n2cnn(Cc3ccccc3Cl)c2=S)cc1	-9.3
106	CCc1nnc(NC(=O)CSc2nnc(C)n2Cc2ccccc2)s1	8.0
107	COc1ccc(OC)c(S(=O)(=O)NC(N)=NCCc2ccccc2OC)c1	-0.8
108	Cc1ccc(C(=O)Cn2c3[n+](c4ccccc42)CC(O)CS3)cc1 (centres undefined)	24.2
109	CNC1(c2nnnn2-c2ccccc2C)CCOC(C)(C)C1 (centres undefined)	12.1
110	CS(=O)(=O)NCCNc1ncc(C(F)(F)F)cc1Cl	12.4
111	CCC(C)C(=O)Nc1nc2ccc(S(C)(=O)=O)cc2s1 (centres undefined)	-4.9
112	CCOC(=O)C1(Cc2ccccc2C(F)(F)F)CCN(C(=O)c2cc(C(C)=O)n[nH]2)CC1	-4.2
113	O=C(Cn1nc2n(c1=O)-c1ccccc1SC2)N/N=C/c1cccs1	15.5
114	CCC(CC)c1nnc(NC(=O)Cc2cccs2)s1	21.6
115	CCOc1ccc(NS(=O)(=O)c2ccc(C)c(C(N)=O)c2)cc1	13.4
116	NC(Cc1ccc(O)cc1)c1cn([C@@H](CCC(=O)O)C(=O)N2CCNCC2)nn1 (some centres undefined)	9.7
117	c1ccc(-c2noc(CN3CCOCC3)n2)cc1	13.4
118	Cc1nnc(NC(=O)CSC2=NN3CCCC(=O)N=C3S2)s1	4.8
119	CCOC(=O)C1CCCN(C(=O)CN2C(=O)/C(=C/c3ccc(OC)cc3)Oc3ccccc32)C1 (centres undefined)	18.4
120	Brc1ccc2c(c1)[C@H]1OCC[C@H]1[C@@H](c1cccs1)N2	-8.1
121	COc1ccccc1N1CCN(c2ccc([N+](=O)[O-])cc2Cl)CC1	13.4
122	O=C(CCc1nc2ccccc2n1-c1ccccc1)NCCO	3.6
123	CCOc1ccc(C(=O)CCC(=O)NC(CC(C)C)C(=O)OC)cc1 (centres undefined)	10.1
124	Cc1ccccc1C(=O)NC1CCN(CC(=O)Nc2c(C)cccc2C)CC1	16.1
125	CCN(C(=O)CSC1=Nc2ccccc2C2CC=NN12)C1CCS(=O)(=O)C1 (centres undefined)	-4.2
126	O=C(COC(=O)Cc1ccc(Cl)cc1Cl)Nc1ccc(OC(F)F)cc1	6.2
127	COc1ccc(NC(=O)CN2CCc3ccccc3C2)cc1S(=O)(=O)N1CCOCC1	9.5
128	COc1ccc(C(=O)NCCCc2nc3ccccc3n2Cc2ccccc2C)cc1OC	4.8
129	COC(=O)CN(c1ccccc1F)S(=O)(=O)c1ccc(C)cc1	20.5
130	COC(=O)[C@@H]1CC[C@H](C)[C@@H](c2ccc(C)cc2)N1C(=O)c1ccc(/C=N/OC[C@@H](O)[C@H]2O[C@@H]3OC(C)(C)O[C@@H]3[C@H]2O)cc1	0.7
131	COC(=O)c1cc(OC)cc(O)c1C(=O)c1c(O)cc(C)cc1O	22.1
132	COc1ccc(/C(C)=N\O)cc1OC	13.0
133	CC1CN(S(=O)(=O)c2ccc(C(=O)NN3CCN(C)CC3)cc2)CC(C)O1 (centres undefined)	8.7
134	Fc1ccccc1-c1n[nH]c(=S)n1CC1CCCO1 (centres undefined)	13.9
